# Screening data as filed in PubChem BioAssay.
# Rce1 inhib: inhibitors of yeast Ras-converting enzyme; yeast membranes, quenched prenylated peptide cleavage fluorescence; actives 0.27% (n = 290,000); calls only; Q03530;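 active = fall in fluorescence gain of 50% or more versus controls, with final raw signal at or below 3038400; inconclusive = same 50% fall but final raw signal above 3038400; inactive = fall in fluorescence gain under 50%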;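 also: plate controls were neutral control wells for no effect and wells lacking membranes for full effect; tested at 10 µM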
# Yeast UUG start: yeast start codon fidelity modulation | S. cerevisiae UUG-firefly luciferase reporter, luminescence/redox ratio | activity score, % at 18.7 µM | actives 0.13% (n = 350,000) | AID 602363;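 active = replicate mean at a twofold rise or more, about +100% in these data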;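 also: firefly luciferase made from a UUG start codon reports start codon fidelity; reporter light over untreated wells divided by growth signal over untreated wells; some hits fall short of that in this replicate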
# eIF4H inh: inhibitors of RNA binding by human eIF4H. AID 2012. actives 0.94% (n = 290,000). inhibition, % at 35 µM. eIF4H fluorescence polarization binding assay. Q15056;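 active = 50% or more with normal probe brightness, or confirmed in later tests; inconclusive = above 50% with abnormal brightness, or retests that disagree; inactive = below 50% or failed in later tests; about a fifth of its hits are not listed in these tables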;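 also: calls also rest on retests at 20 µM and on dose response follow-up; 0% = protein and probe with vehicle and 100% = probe without protein; strong numbers were not always called active; many hits fall short of the cut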
# PABP polyA inh: blocks human PABP binding to poly(A) RNA. fluorescence polarization. inhibition, % at 35 µM. actives 1% (n = 290,000);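 active = 50% or more with normal probe brightness, or confirmed in later tests; inconclusive = above 50% with abnormal brightness, or retests that disagree; inactive = below 50% or failed in later tests; about a fifth of its hits are not listed in these tables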;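 also: calls also rest on retests at 20 µM and on dose response follow-up; controls were probe without protein and protein plus probe with vehicle; some compounds called inactive have numbers as strong as hits; many hits fall short of the cut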
# Target sequence (P11940 whole entry, looked up): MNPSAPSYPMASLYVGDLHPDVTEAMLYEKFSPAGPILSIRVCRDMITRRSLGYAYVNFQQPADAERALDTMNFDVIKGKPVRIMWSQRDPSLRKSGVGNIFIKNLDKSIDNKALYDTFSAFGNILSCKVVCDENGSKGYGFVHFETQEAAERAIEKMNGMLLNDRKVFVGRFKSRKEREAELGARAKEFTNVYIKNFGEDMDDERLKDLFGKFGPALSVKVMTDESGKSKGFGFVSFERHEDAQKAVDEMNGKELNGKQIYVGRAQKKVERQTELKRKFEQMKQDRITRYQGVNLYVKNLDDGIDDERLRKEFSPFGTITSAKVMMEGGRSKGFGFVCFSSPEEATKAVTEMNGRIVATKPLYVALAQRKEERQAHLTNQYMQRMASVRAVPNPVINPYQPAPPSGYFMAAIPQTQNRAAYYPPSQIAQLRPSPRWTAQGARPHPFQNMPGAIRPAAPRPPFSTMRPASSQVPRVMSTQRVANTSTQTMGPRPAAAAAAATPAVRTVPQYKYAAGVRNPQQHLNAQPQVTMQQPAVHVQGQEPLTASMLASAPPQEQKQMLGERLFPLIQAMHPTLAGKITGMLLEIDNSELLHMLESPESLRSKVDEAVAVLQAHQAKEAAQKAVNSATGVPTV
# Env fusion inh: blocks HIV Env-driven cell-cell fusion. actives 1.1% (n = 360,000). inhibition, % at 12.3 µM. HeLa-JRFL Env/CEM21 cell fusion, luciferase. AID 651610;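 active = mean replicate inhibition score of at least 50 and every replicate individually at or above 50; inconclusive = only one of the two criteria met; inactive = mean below 50 and not all replicates reaching 50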;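 also: 0% = plate neutral controls and 100% = maraviroc near 300 nM; one replicate is shown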
# CSC inhib: cancer stem cell inhibition; cancer stem cell-like cells viability, luminescence; actives 1.1% (n = 300,000); inhibition, % at 7.5 µM;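 active = mean at 75% or more and at least half the replicates too; inconclusive = mean and replicates disagree; tested in HMLE shEcad cells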;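 also: 0% = median of negative and 100% = median of positive control wells; the first replicate is given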
# MT1-MMP act inh: inhibitors of human MT1-MMP activation; GFP/RFP ratio change, % at 20 µM; HT1080 RFP-PRO-GFP cells, GFP/RFP ratio fluorescence, overnight; percent of plate control window, DMSO zero; AID 651647; P50281; actives 0.061% (n = 360,000);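 active = GFP/RFP ratio change of at least 30% with cell ATP level not reduced by more than half and red fluorescence within 50% of control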; also: strong numbers were not always called active
#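 system = RFP-PRO-GFP reporter HT1080 cells | dosing = 20 µM single dose, 1% DMSO | timing = overnight cell settling, then overnight compound exposure, 37 °C, 5% CO2 | read-out basis = GFP/RFP fluorescence ratio | controls = DMSO and RFP-L50D-GFP cell wells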
# eIF4H inh retest: recorded beside eIF4H inh, whose call it bears; inhibition, %; compound at 20 µM; confirmation average;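 mean of two retest wells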
# PABP polyA inh retest: further read-out of PABP polyA inh, marked with its call; inhibition, %; compound at 20 µM; confirmation repeats;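 mean of two retest wells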
# MT1-MMP act inh RFP: also measured in MT1-MMP act inh; calls as there; RFP signal change, %; measured here: RFP expression control read;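 0 = vehicle wells; hits needed this value within 50% of zero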
# Numbers without * were called inactive; i = inactive; ? = inconclusive; · = not tested or not shown; & = joins results of further samples; [ ] = dose if it differs, or a comment. Some of the compounds tested, so the mix of outcomes need not match the whole.
SMILES,Rce1 inhib,Yeast UUG start,eIF4H inh,PABP polyA inh,Env fusion inh,CSC inhib,MT1-MMP act inh,MT1-MMP act inh RFP,others
O=C(Nc1ccc(N2CCOCC2)cc1)c1csc([C@@H]2O[C@H](CO)[C@H](O)[C@H](O)[C@H]2O)n1,·,-8,·,·,16,·,3,6,
Cc1ccccc1C(=O)N1CCC(C(=O)Nc2ccc(S(=O)(=O)N3CCCCC3)cc2)CC1,i,-34,-10,44,·,3,0,-11,
O=C(N/N=C1/CC2C=CCC12)c1cccs1 (centres undefined),i,-15,-7,-5,-25,·,0,2,
CCOC(=O)C1=C(CSCc2ccccc2)NC(=O)NC1c1cc(C)ccc1C (centres undefined),i,-11,-12,-4,2,-1,-10,-12,
CCOc1ccc(S(=O)(=O)Nc2cc(S(=O)(=O)N3CCOCC3)ccc2OC)cc1,·,-2,·,·,·,-11,1,2,
[N-]=[N+]=N[C@@H](CCN1CC[C@H](O)CCC1=O)c1ccccc1,i,-13,-1,-4,-16,4,-1,0,
Cc1ccc(NC(=S)N=Nc2c(O)n(C)c3ccc(S(=O)(=O)N4CCOCC4)cc23)cc1C,i,-20,5,1,23,2,20,3,
COc1cc(OC)cc(OC(=O)C2CCN(C(=O)c3ccc(Cl)cc3)CC2)c1,·,4,·,·,·,-11,4,2,
Clc1ccccc1CSc1nncn1NC/C=C/c1ccccc1,i,-8,-5,1,6,18,1,-1,
COC(=O)CC(NC(=S)NC(=O)c1ccccc1)c1ccc(Br)cc1 (centres undefined),i,-23,16,24,2,8,-3,-3,
CCOc1ccc(-n2c(SCC(N)=O)nnc2-c2ccco2)cc1,i,-11,8,-5,7,3,-2,0,
C[C@H](CO)N1C[C@H](C)[C@@H](CN(C)Cc2ccc(O)cc2)OCc2cnnn2CCCC1=O,·,5&1,·,·,8,·,-1,1,
CC1SC(c2ccccc2Cl)NC1=O (centres undefined),i,-10,7,-13,·,·,2,4,
Cc1ccccc1NC1=C(Cl)C(=O)OC1OC(=O)c1ccco1 (centres undefined),i,2,-2,-9,·,-4,2,1,
COCCOC(=O)C1=C(C)Nc2ncnn2C1c1ccc(F)cc1 (centres undefined),i,-25,8,-1,-33,-11,0,-2,
O=C(Nc1ccccc1Cl)N(Cc1nc2ccccc2c(=O)[nH]1)Cc1cccs1,i,·,2,-4,-14,-6,2,-8,
CCOc1ccc(NC(=O)CN(C)C(=O)c2cc(C)oc2C)cc1OCC,i,-3,·,·,-18,3,0,1,
Cc1nnc(NC(=O)c2csc3c2CCC(C)C3)s1 (centres undefined),i,·,?,?,5,-17,-2,1,
CN(Cc1ccccc1Cl)C(=O)c1cc2ccccc2o1,i,1,0,-1,9,·,·,·,
CN(Cc1ccccc1)C(=O)c1ccc(NC(=O)Cc2cccc(NC(=O)C3CCN(C(=O)C4CCCC4)CC3)c2)cc1,·,12,·,·,-7,-5,6,-4,
O=C(Nc1sc2c(c1C(=O)NCC1CCCO1)CCCC2)c1cccs1 (centres undefined),i,-11,-1,-5,-1,·,0,-3,
Cc1ccc2oc3c(c(=O)c2c1)C(c1cccs1)N(CCCN(C)C)C3=O (centres undefined),i,6,-9,3,·,-11,-15,5,
CCN(CC)CCN1C(=O)C(=O)/C(=C(/O)c2ccncc2)C1c1ccccc1 (centres undefined),i,-11,1,-2,·,-16,0,1,
NC(=O)NC(=O)CC1S/C(=N/N=C/c2ccccc2)NC1=O (centres undefined),i,-15,4,-10,-20,-9,2,-1,
COc1ccc(OC)c(NC(=O)CSc2ncccn2)c1,i,-17,-6,35,-54,-5,4,4,
C[C@H]1CN([C@@H](C)CO)C(=O)CCCn2cc(nn2)CO[C@@H]1CN(C)C(=O)Oc1ccccc1,·,2&-10,·,·,-7[16.7 µM],·,1,5,
Cc1ccc(N(CCC(=O)Nc2nnc(C3CC3)s2)S(=O)(=O)c2ccccc2)cc1,i,·,-7,12,-33,-11,·,·,
COC(=O)[C@@]12CCCCN1[C@H](c1ccc(-c3cccc(Cl)c3)cc1)[C@@H]1C(=O)N(C)C(=O)[C@@H]12,·,-11,·,·,24,·,-4,-7,
COc1ccc(N(C(=O)Cn2nnc(-c3ccc(Cl)cc3)n2)C(C(=O)NCC2CCCO2)c2ccncc2)cc1 (centres undefined),i,·,4,10,6,·,-7,-2,
CCOC(=O)Cc1c(C)nc2c(-c3ccc(Cl)cc3)c[nH]n2c1=O,i,-12,9,5,·,·,5,3,
CCC(=O)Nc1cccc(C(=O)/C=C/c2cccs2)c1,i,9,-1,-12,-12,51,-3,-8,
COC(=O)c1ccccc1S(=O)(=O)N1Cc2cc([N+](=O)[O-])ccc2Oc2ccccc21,i,-6,3,-2,12,-15,-2,-4,
CSc1nc(N)c(C#N)c(-c2ccccc2Cl)c1C#N,i,-10,-3,2,·,-18,-5,-7,
Cn1c(CCc2ccccc2)nnc1SCC(=O)N1CCCC1,i,-4,0,-5,·,-22,5,2,
COc1ccc(-c2ncncc2-c2ccc(Cl)cc2)c(O)c1,i,·,9,17,56*,-10,-14,-13,
Cc1ccc(NC(=O)Cc2nnc(SCC(=O)Nc3ccccc3)n2C)cc1,i,-10,-10,-17,·,-6,3,2,
COc1cc(SC)ccc1C(=O)OCC(=O)N1CCCC1,i,-8,9,6,0,4,1,1,
CN1CCN(C(=O)CN(C)S(=O)(=O)c2ccc(F)cc2)CC1,i,-17,-1,-7,5,-1,0,3,
N#C/C(=C/c1ccc(OCc2ccc(C(=O)O)cc2)c(Br)c1)c1cccc(F)c1,i,·,86,-1,14,-14,-2,1,eIF4H inh retest=2;PABP polyA inh retest=14
Cc1nnc(NC(=O)CCC(=O)N2CCC(C)CC2)s1,i,5,-3,-2,·,·,0,-2,

# Molecules listed so far with bromine, in the order listed:
SMILES,Rce1 inhib,Yeast UUG start,eIF4H inh,PABP polyA inh,Env fusion inh,CSC inhib,MT1-MMP act inh,MT1-MMP act inh RFP,others
COC(=O)CC(NC(=S)NC(=O)c1ccccc1)c1ccc(Br)cc1 (centres undefined),i,-23,16,24,2,8,-3,-3,
N#C/C(=C/c1ccc(OCc2ccc(C(=O)O)cc2)c(Br)c1)c1cccc(F)c1,i,·,86,-1,14,-14,-2,1,eIF4H inh retest=2;PABP polyA inh retest=14

# (list continues)
SMILES,Rce1 inhib,Yeast UUG start,eIF4H inh,PABP polyA inh,Env fusion inh,CSC inhib,MT1-MMP act inh,MT1-MMP act inh RFP,others
Cc1occc1C(=O)NNC(=S)NCc1ccc(Cl)cc1,i,·,2,55,-3,-6,0,3,eIF4H inh retest=-1;PABP polyA inh retest=-1
CC(C)CC(=O)N1CCN(S(=O)(=O)c2ccccc2)CC1,i,-4,-12,4,7,-12,0,-1,
O=C(CC1C(=O)NCCN1CC1CCCCC1)NCc1ccc(Cl)cc1 (centres undefined),i,·,8,6,6,-11,-6,1,
CCOc1ccccc1CN1CCCC(C(=O)c2ccc(OC)c(OC)c2)C1 (centres undefined),i,2,-4,-4,-26,33,-4,0,
O=C(O)C1CCC(=O)N1C1CCCC1 (centres undefined),i,-12,-2,-9,·,2,-5,5,
COc1cccc(-c2cc(C(=O)N3CCN(C(=O)c4ccco4)CC3)on2)c1,i,-15,-6,-2,-5,1,2,2,
COc1ccc(/C=C2\Sc3ccc(C(=O)NCCN4CCCCCC4)cc3N(C)C2=O)cc1,i,-12,-16,-44,-12,8,1,-1,
COc1ccc(NC(=O)Nc2ccc(N(C)C)cc2)cc1,i,-19,2,-17,-56,1,5,2,
COc1ccc(Cl)cc1C(=O)NNC(=O)c1nc2nc(C)cc(C)n2n1,i,·,7,-3,-3,7,2,4,
O=C1CN(C(=O)c2ccc(Br)o2)C(c2ccccc2)c2cc(F)ccc2N1 (centres undefined),i,23,-6,13,15,0,-17,-9,
Cc1ccc(CNC(=O)CCC(=O)Nc2nnc(C(C)C)s2)cc1,i,-7,-2,-2,-5,-6,3,2,
Cc1onc(-c2c(F)cccc2Cl)c1C(=O)N1CCN(c2ncc(Br)cn2)CC1,i,·,14,17,14,-2,3,-3,
O=C(Cc1ccc(Br)cc1)Nc1cccc(S(=O)(=O)N2CCOCC2)c1,·,2,·,·,10,-11,-1,-7,
CCCOP(=O)(c1ccc(N(C)C)cc1)C(O)c1cccnc1 (centres undefined),i,-10,-1,-2,·,·,-4,4,
Cc1ccc(NC(=O)COc2coc(CN3CCN(Cc4ccccc4)CC3)cc2=O)cc1,i,1,·,·,23,-3,15,-14,
COCCOC(=O)C1=C(C)NC(=S)NC1c1cccs1 (centres undefined),i,-16,4,-2,9,-9,-3,1,
COc1ccc(/C=C2/SC(c3ccc(C)cc3)=NC2=O)cc1OC,i,·,?,?,·,24,7,-1,
O=C(CN(C(=O)CNS(=O)(=O)c1ccccc1)c1ccc(F)cc1)NCc1ccco1,i,-2,-1,-6,4,-7,2,0,
CC1(O)c2ccccc2C(=O)N1Cc1ccccc1 (centres undefined),i,7,-2,-8,-1,-17,·,·,
c1cnc(-c2noc(CN3CCN(C4CCCC4)CC3)n2)cn1,i,-10,-6,-3,0,1,-1,2,
CC(=O)Nc1ccc(S(=O)(=O)Nc2cccc3cccnc23)cc1,·,-23,10,-3,-13,-11,3,-4,
CC1CCN(C(=O)CSc2ccc(-c3ccc4c(c3)OCCO4)nn2)CC1,i,-11,-4,-8,1,·,2,3,
O=C(O)C1CCCN1C(=O)Nc1ccc(Cl)cc1 (centres undefined),i,·,-1,-3,-25,-5,-6,0,
CC(=O)N(CC(=O)Nc1nn(-c2ccccc2)nc1C(N)=O)Cc1ccccc1,i,·,-4,7,-121,-11,6,5,
CS(=O)(=O)N1CCN(c2ncccn2)CC1,i,-21,1,10,-44,3,3,-1,
Cc1nc2ccccc2c2oc(C(=O)N3CCN(c4ccc([N+](=O)[O-])cc4)CC3)cc12,i,-9,-2,4,-11,-22,-1,-5,
CC1CCN(S(=O)(=O)c2ccc(NC(=O)CSc3nnnn3C)cc2)CC1,i,-18,6,4,22,1,4,-11,
CCOc1cc(C2C3=C(CCCC3=O)OC3=C2C(=O)CCC3)cc([N+](=O)[O-])c1O,i,·,0,-2,-7,4,2,1,
CCOc1cc(NS(=O)(=O)c2ccc(OC)cc2)c(OCC)cc1NC(C)=O,i,·,-6,-5,12,0,4,9,
Nc1nc(CSc2ccccn2)nc(Nc2ccccc2)n1,i,-27,-7,-8,-180,-13,8,1,
CCSc1sccc1C1C(C#N)=C(N)N(c2cccnc2)C2=C1C(=O)CC(C)(C)C2 (centres undefined),i,-7,4,20,-23,·,2,6,
COCCNC(=O)CN1C(=O)c2cccc3cccc1c23,i,2,-4,3,-2,-11,1,1,
COc1ccc2[nH]c(C)c(C(=O)CN(C)CC3OCCO3)c2c1,i,·,-8,-8,-5,-3,·,·,
CCN1CCN(CCNC(=O)c2ccc(/C=C3/Sc4ccccc4N(Cc4cccc(Cl)c4)C3=O)cc2)CC1,i,·,-14,-2,5,?,-3,-5,
Cc1cc(C)c2[nH]c(=O)c(CN(Cc3ccco3)C(=O)C3CCCO3)cc2c1 (centres undefined),·,·,13,7,·,-14,-5,-4,
CC(Cl)C(=O)Nc1cc(C(C)(C)C)nn1-c1ccccc1 (centres undefined),i,·,-11,2,13,-3,1,6,
Cc1c(C)c(C)c(S(=O)(=O)NCCc2ccccn2)c(C)c1C,i,-12,-5,-9,3,7,2,-3,
